CDC25B CDK2 inh – human CDC25B-CDK2/CyclinA binding inhibition; P30305+P24941; HTRF CDC25B-CDK2/CyclinA binding, anti-His/anti-Flag; hits give high values; AID 1259370; z-score (concentration not given with the values); 94,000 tested, 0.72% active;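 also: score is relative to mean and SD of negative controls; strong numbers were not always called active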
HIV TAR-Tat – HIV-1 TAR-Tat binding disruption; z-score (no concentration beside the values); HIV-1 TAR RNA, Tat peptide displacement FRET; hits give high values; 100,000 tested, 0.6% active;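 also: score is relative to mean and SD of negative controls; some compounds called inactive have numbers as strong as hits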
* = called active by the depositor; . = no result given.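 The calls were made as follows: active = z-score from 3 up in half or more of its runs; inactive = the rest.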

structure	CDC25B CDK2 inh	HIV TAR-Tat
CC1CCCC(NC(=O)C2CCCN(S(=O)(=O)c3ccc4c(c3)oc(=O)n4C)C2)C1C (stereo not drawn)	0.62	.
COc1ccc(NC(=O)C2CC3CCCN3C23C(=O)N(C)c2ccccc23)cc1OC (stereo not drawn)	.	-0.63
CCc1cc(C)cc(OCCOc2ccccc2/C=C2\SC(N)=NC2=O)c1	-1.5	.
CC1(C)Cc2c(sc3ncn4nc(-c5cccs5)nc4c23)C(C)(C)N1	-0.82	1.3
CC(=O)Nc1nc2cc(NS(C)(=O)=O)ccc2s1	.	0.71
O=C(CCCn1c(=O)c2cccn2c2ccccc21)NCc1cccs1	.	2.3
O=C(NCc1nnnn1-c1ccccc1)NC1CCCCC1	.	1.6
Cc1cc(C)n(C(=O)c2nc3ccccc3nc2-n2nc(C)cc2C)n1	-2.5	1.3
COc1cccc(-c2nc3c(s2)CN(S(=O)(=O)c2ccc4c(c2)oc(=O)n4C)CC3)c1	.	0.62
CCN(CC)CCNC(=O)Cn1ncc2c(=O)oc3ccc(C)cc3c21	-0.98	0.82
Nc1nc(SCc2cnc(-c3ccccc3)o2)nc2nc[nH]c12	-0.96	0.43
Fc1ccc(CSc2nc3ncccc3o2)cc1	.	1.1
Nc1ncnc2c1ncn2CCN1CCCCC1	-2.1	0.15
Cc1ccc(S(=O)(=O)OCC2C3CCC(C3)C2O)cc1 (stereo not drawn)	1	.
CC[C@H]1OC(=O)[C@H](C)[C@@H](O[C@H]2C[C@@](C)(OC)[C@@H](O)[C@H](C)O2)[C@H](C)[C@@H](O[C@@H]2O[C@H](C)C[C@H](NC)[C@H]2O)[C@](C)(O)C[C@@H](C)CN(C)[C@H](C)[C@@H](O)[C@]1(C)O	-2.6	.
CCCc1cc(=O)n2nc(N3CCC(C(=O)NCCC4=CCCCC4)CC3)sc2n1	-0.67	1.4
CN(CC(=O)NC1CCCC1)S(=O)(=O)c1cnc[nH]1	-1	-1.5
Clc1ccc(-c2noc3ncnc(NCc4ccccc4Cl)c23)cc1	-1.6	-0.83
O=C(Nc1nnc(S(=O)(=O)N2CCCCC2)s1)c1ccco1	-0.39	2.1
O=C(C1CCN(S(=O)(=O)c2ccc3[nH]c(=O)ccc3c2)CC1)N1CCCC1	.	0.85
COc1ccc(C2=NS(=O)(=O)c3cc(S(=O)(=O)N4CCCCC4)ccc3N2)cc1OC	.	-0.09
O=c1c(Cl)c(N2CCN(c3ccccc3)CC2)cnn1-c1ccccc1	-2	0.58
CCn1nc(C)c(CCNC(=O)CCc2c(C)nn3cnnc3c2C)c1C	.	1
CC1(C)Cc2nc3oc4c(SCC(=O)c5ccccc5)ncnc4c3cc2CO1	.	1.2
CC1CC(N(C(=O)c2cccs2)c2ccccc2)c2ccccc2N1 (stereo not drawn)	-0.5	-0.96
O=S(=O)(NC1c2ccccc2Oc2ccccc21)c1ccc(Cl)cc1	-2.8	.
O=C1OC(COc2ccccc2)CN1c1ccccc1 (stereo not drawn)	0.54	0.52
COC(=O)C1=C(C)N=C2SCCC(=O)N2C1c1ccc(C(C)(C)C)cc1 (stereo not drawn)	-0.12	-0.66
Cc1cccc(C)c1OCCCc1c(C)n[nH]c1C	-0.61	-0.49
Cc1onc(-c2ccccc2)c1C(=O)n1cccc1	-2.8	.
Cc1cc(C#N)c(C)n1-c1ccc(Cl)cc1	0.98	1.4
COc1ccc(-c2c(C)nn3c(N4CCCC4)cc(C)nc23)cc1OC	-2.2	-0.39
O=C(c1cc2c(Cl)ccc3c2n1CCO3)N1CCC(N2CCCCC2)CC1	.	1.6
CCOc1cc(-c2ccccc2)nc2ccccc12	-1.9	0.94
CC1CCN(C(=O)CCC(=O)N2Cc3ccccc3Oc3ncccc32)CC1	.	0.46
N#Cc1ccccc1Cn1c(-c2nonc2N)nc2ccccc21	0.26	.
CCN(CC)c1cc2c(cc1F)c(=O)c(S(=O)(=O)c1ccccc1)cn2C	.	0.34
CN(C)S(=O)(=O)c1ccc2nc(NC(=O)c3cc4ccccc4o3)sc2c1	.	0.26
CN1CCN(Cc2cc(Cl)c3cccnc3c2O)CC1	-8	1.5
COc1ccc(CCCc2n[nH]c(=S)o2)cc1C	-1.1	.
CCOC(=O)Cc1c(C)nc2c(-c3ccccc3)c(C(F)(F)F)nn2c1C	0.03	.
COc1ccc2c(c1)C=C(C(=O)NC1CCCC1)CO2	.	0.76
Brc1ccccc1-c1nnc2sc(-c3cccnc3)nn12	-0.29	2.1
CCCCCOC(=O)c1c(C)oc2ccc(NS(=O)(=O)c3ccc4c5c(cccc35)C(=O)N4)cc12	-1.1	0.61
O=C(COc1ccccc1Cl)Nc1ccccc1SCc1cc(=O)n2ccsc2n1	.	-0.5
Cc1cc(-c2ccc(=O)[nH]n2)cc(S(=O)(=O)N2CCSCC2)c1C	.	1.1
COc1cc(C2NC(=O)c3n[nH]c(-c4cccs4)c32)ccc1O (stereo not drawn)	-0.39	-0.95
O=C(CSCc1nc2cccnc2n1C1CCCCC1)N1CCOCC1	.	-0.46
CCOC(=O)c1cnc(Sc2ccc(C(F)(F)F)cc2[N+](=O)[O-])nc1N	-1.4	.
COc1ccc(C(=O)c2cn(Cc3ccccc3)c3cc4c(cc3c2=O)OCCO4)cc1	-3.2	-0.3
NC(=O)C1CCN(C(=O)CSc2c3c(nc4ccccc24)CCCC3)CC1	-6	-1.7
C=CCOc1ccc(C2CC(=O)Nc3c2c(C)nn3-c2nncc(-c3ccc(OC)cc3)n2)cc1 (stereo not drawn)	-0.74	1.1
COc1ccc(CN2Cc3ccccc3C2)cc1	-1.1	2
COc1cccc(C2C3=C(Nc4c2c(=O)n(C)c(=O)n4C)c2ccccc2C3=O)c1OC (stereo not drawn)	-6	0.15
COc1ccc(-c2[nH]c(=S)[nH]c(=O)c2C#N)cc1OC	-1.1	.
Cc1cc(C)c(NS(=O)(=O)c2c(C)nc3scc(C)n3c2=O)c(C)c1	-0.37	-0.89
COC(=O)c1scc(C)c1NC(=O)c1sc2ncn(C)c(=O)c2c1C	-0.29	.
Cc1nn(CCCC(=O)N2CCN(Cc3ccc4c(c3)OCO4)CC2)c(=O)c2cc3sccc3n12	0.2	1.3
CNC(=O)c1c(NC(=O)c2ccc(Cl)cc2)sc2c1CCC2	.	-0.96
Cc1ccccc1Nc1nnc(-c2ccc(C)c(S(=O)(=O)N3CCOCC3)c2)c2ccccc12	-4.9	-1.1

Next section.
structure	CDC25B CDK2 inh	HIV TAR-Tat
COC(=O)C1=C(C)N=C2SCCC(=O)N2C1c1cccs1 (stereo not drawn)	-1.8	.
O=C(NCc1cccs1)C(=O)NCC(c1cccs1)S(=O)(=O)c1ccccc1 (stereo not drawn)	.	1.1
CCc1ccc(Nc2cc(C)nc(SC)n2)cc1	1.4	0.75
Cn1cc(-c2cc3n(n2)CCC(=O)N3CC(=O)O)c2ccccc21	-1.7	1.9
Cc1cc(-c2nc3ccccc3s2)ccc1N	6.6	0.3
COC(=O)C(C)Oc1ccc2c(=O)c(Oc3cc(C)cc(C)c3C)coc2c1 (stereo not drawn)	-0.37	1.1
Cc1nn(C(C)C(=O)Nc2cccc(Cl)c2)c(=O)c2c1sc1ccccc12 (stereo not drawn)	-2.5	-0.68
Cc1cccn2cc(CNS(=O)(=O)c3cc(F)ccc3F)nc12	-0.92	.
Cc1ccc(C(=O)Cn2c3ccccc3n3nc(C)c(=O)nc23)cc1	1.5	-1.8
Cc1csc(NC(=O)CSc2nnc3ccc(-c4ccccn4)nn23)n1	.	0.45
CCC(NC(=O)Nc1cc(Cl)c(OC)cc1OC)c1c(-n2cccc2)sc2c1CCN(C)C2 (stereo not drawn)	.	-0.48
O=C(CCc1nnc2c(=O)n(-c3cccc(F)c3)ccn12)N1CCN(c2ccc(F)cc2)CC1	.	0.97
Cc1nc2c(C)c(C)c(C)c(C)c2[nH]1	-1.8	.
CC1CCc2c(C(=O)NC3CCCc4ccccc43)csc2C1 (stereo not drawn)	-1.7	0.7
O=C(O)CC1SC(=O)N(Cc2ccccc2)C1=O (stereo not drawn)	0.4	-1.8
CCN(CC)c1ccc(Nc2nc(-c3sc(N)nc3C)cs2)cc1	0.23	5.7*
O=C(CSc1nc2ccccc2c(=O)n1Cc1ccco1)c1ccccc1	-1.5	1.2
COc1ccc(-c2noc(C3CCCN(S(=O)(=O)c4ccc(Cl)cc4)C3)n2)c(OC)c1 (stereo not drawn)	.	1
CC1(C)CC(=O)c2sc(NC(=O)CCSc3ccccc3)nc2C1	-1.3	0
CC(=O)Oc1ccc2ccccc2c1C1=NN(C(C)=O)C(c2cc(C)oc2C)O1 (stereo not drawn)	.	1.5
CC(C)(C)OC(=O)NNC(=O)c1ccccc1C(=O)O	-2.3	.
CCN(CC)C(=O)CSc1nc(N2CCOCC2)c2c(c1C#N)CC(C)(C)OC2	-0.55	0.31
Cc1noc(/C=C/c2ccco2)c1S(=O)(=O)N1CCCC(C(=O)N2CCOCC2)C1 (stereo not drawn)	.	-0.06
c1cc(CN2CCCC2)n(-c2nnc(N3CCCCC3)s2)c1	.	2.5
CCOc1ccc(-n2c(SCC(C)C)nc3sc4c(c3c2=O)CCN(C(C)=O)C4)cc1	-0.92	1.8
O=c1cc(COc2ccccc2-c2nnc(-c3ccccc3)o2)nc2ccccn12	.	-0.41
O=c1c(SCc2c(F)cccc2Cl)nccn1-c1ccccc1	.	0.03
CC1CCCC(C)N1C(=O)Cn1cc(C(=O)C2CC2)c2ccccc21 (stereo not drawn)	0.98	1.7
Cn1c2c(c(=O)n(C)c1=O)C(c1ccc(O)c(O)c1)C1C(=O)c3ccccc3C1=N2 (stereo not drawn)	-3.2	0.5
CCC1(CC)NC(=S)N(c2ccccc2)N1	-0.75	.

Six compounds from above, sorted by formula weight, low to high:
structure	CDC25B CDK2 inh	HIV TAR-Tat
c1cc(CN2CCCC2)n(-c2nnc(N3CCCCC3)s2)c1	.	2.5
O=c1c(SCc2c(F)cccc2Cl)nccn1-c1ccccc1	.	0.03
CCN(CC)c1ccc(Nc2nc(-c3sc(N)nc3C)cs2)cc1	0.23	5.7*
Cn1c2c(c(=O)n(C)c1=O)C(c1ccc(O)c(O)c1)C1C(=O)c3ccccc3C1=N2 (stereo not drawn)	-3.2	0.5
Cc1noc(/C=C/c2ccco2)c1S(=O)(=O)N1CCCC(C(=O)N2CCOCC2)C1 (stereo not drawn)	.	-0.06
CCOc1ccc(-n2c(SCC(C)C)nc3sc4c(c3c2=O)CCN(C(C)=O)C4)cc1	-0.92	1.8

Remaining list, next part:
structure	CDC25B CDK2 inh	HIV TAR-Tat
CS(=O)(=O)Nc1ccc2nc(SCC(=O)Nc3ccccc3F)sc2c1	0.3	0.39
Cc1cccc(-c2noc(COc3ccc(C)c(C)c3)n2)c1	-1	.
COc1cc(C2Nc3ccccc3-c3nnc(SC)nc3O2)cc(Br)c1O (stereo not drawn)	1.5	-2.4
O=C(Nc1ccccn1)C(NS(=O)(=O)c1cccc2nsnc12)c1ccccc1 (stereo not drawn)	-0.52	0.75
CCc1cc2c(Nc3ccc(OC)cc3OC)ncnc2s1	.	1.1
CCc1ccccc1-n1nnc(-c2nc(-c3ccncc3)no2)c1N	.	0.15
Cc1nn(-c2ccc(C(=O)O)cc2)c2c1C(=O)CCC2	0.58	2.5
O=C(Cn1ccc2cc(S(=O)(=O)N3CCCCC3)ccc21)NCC1CCCO1 (stereo not drawn)	.	0.76
CCOc1ccc(NS(=O)(=O)c2cc3c4c(c2)C(C)C(=O)N4CCC3)cc1 (stereo not drawn)	.	2.4
O=C(NC1CCCCCC1)c1cc2c(s1)-c1ccccc1OC2	-0.3	.
O=C(OCc1cc(=O)n2c3c(sc2n1)CCCC3)c1cccs1	.	1.1
CCCc1nn2c(=O)cc(COC(=O)c3ccc(OC)cc3)nc2s1	.	1.1
Cc1cc(NC(=O)c2ccc3oc(=O)n(Cc4ccc(F)cc4)c3c2)no1	.	1
CSc1nc2cc(Oc3cccc(Cl)c3Cl)c(Cl)cc2[nH]1	.	0.39
Cc1ccc(-n2c(COCc3nc4cccnc4n3-c3ccc(C)cc3)nc3cccnc32)cc1	.	-7.7
COc1ccc(-c2noc(-c3nnn(-c4ccc(C)cc4)c3N)n2)cc1	0.74	1.1
COc1ccc(S(=O)(=O)NCCc2nnc3ccc(SCc4cccnc4)nn23)cc1	.	1.1
O=C(NCc1ccc2c(c1)OCO2)C1=Cc2sc3c(c2CS1)CCCC3	.	-2.2
CCN1CCN(c2nc3c(c(=O)[nH]c(=O)n3C)n2CCCSc2ncccn2)CC1	-0.93	3
O=C(NCCN1CCOCC1)c1noc2c1CCc1sccc1-2	.	0.67
CCSc1ncc(Cl)c(C(=O)Nc2sc3c(c2C(=O)NC)CCCC3)n1	-1	-7.8
c1ccc(-n2ncc3c(N4CCN(c5ccccn5)CC4)ncnc32)cc1	-0.34	1
Cc1ccnc(SCCn2c(N3CCCC3)nc3c2c(=O)n(C)c(=O)n3C)n1	-1.9	.
Cc1cc(C)nc(-n2nc(C)c3c2NC(=O)CC3c2ccccc2Br)n1 (stereo not drawn)	-0.76	2.1
O=C(Nc1ncc(Cc2ccccc2F)s1)C1=Cc2ccccc2OC=C1	-1.8	0.12

Record cards (already shown).
Cc1cc(C)nc(-n2nc(C)c3c2NC(=O)CC3c2ccccc2Br)n1 (stereo not drawn) as listed: CDC25B CDK2 inh: -0.76; HIV TAR-Tat: 2.1
c1ccc(-n2ncc3c(N4CCN(c5ccccn5)CC4)ncnc32)cc1 as listed: CDC25B CDK2 inh: -0.34; HIV TAR-Tat: 1

Assay outcomes from PubChem BioAssay.
